KCNQ2 enhance: enhances the rat KCNQ2 potassium channel | O88943 | CHO-K1 KCNQ2, FluxOR thallium flux fluorescence; stronger effect = higher value | B-score at 10 µM | actives 0.54% (n = 310,000);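 active = fluorescence ratio B-score at least 3 SD of library B-scores, with initial fluorescence B-score within 3 SD, cut at about 5.3 in these data; same plate scores as AID 2156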;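 also: B-score of peak minus minimum over baseline fluorescence ratio after K+ and Tl+ stimulus; positive B-score means potentiation of KCNQ2 with more thallium influx and brighter signal; only the inactives scoring about 0 or higher are listed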
Target sequence (O88943 whole entry, looked up): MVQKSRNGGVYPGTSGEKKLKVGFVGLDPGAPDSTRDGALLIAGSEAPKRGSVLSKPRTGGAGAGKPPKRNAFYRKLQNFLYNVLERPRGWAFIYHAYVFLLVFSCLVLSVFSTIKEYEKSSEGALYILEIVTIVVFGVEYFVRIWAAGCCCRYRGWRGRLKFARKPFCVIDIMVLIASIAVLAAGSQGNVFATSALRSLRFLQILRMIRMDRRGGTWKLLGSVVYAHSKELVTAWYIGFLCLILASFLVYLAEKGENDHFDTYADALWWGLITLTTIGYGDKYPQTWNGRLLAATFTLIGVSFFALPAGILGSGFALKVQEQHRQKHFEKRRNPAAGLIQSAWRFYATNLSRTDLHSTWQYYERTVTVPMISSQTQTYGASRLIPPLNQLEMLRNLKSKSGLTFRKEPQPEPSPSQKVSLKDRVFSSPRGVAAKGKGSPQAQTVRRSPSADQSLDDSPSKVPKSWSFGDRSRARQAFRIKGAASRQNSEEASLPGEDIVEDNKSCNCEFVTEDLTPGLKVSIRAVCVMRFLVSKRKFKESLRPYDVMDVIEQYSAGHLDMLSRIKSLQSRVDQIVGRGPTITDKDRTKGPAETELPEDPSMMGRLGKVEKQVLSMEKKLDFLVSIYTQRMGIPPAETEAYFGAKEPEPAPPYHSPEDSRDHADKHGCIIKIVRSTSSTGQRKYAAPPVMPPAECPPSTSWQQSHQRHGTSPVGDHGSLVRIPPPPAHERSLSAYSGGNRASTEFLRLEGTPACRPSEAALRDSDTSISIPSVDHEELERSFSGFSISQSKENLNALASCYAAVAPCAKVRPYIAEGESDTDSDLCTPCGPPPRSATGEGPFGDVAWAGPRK
KCNQ2 enhance baseline: further read-out of KCNQ2 enhance, marked with its call; B-score; compound at 10 µM; measured here: initial fluorescence intensity artifact check;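 brightness before thallium and not channel activity; 0 = typical well and far values either way flag optical interference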
An asterisk follows results filed as active. A portion of the library, so the mix of outcomes need not match the whole.

SMILES	KCNQ2 enhance	KCNQ2 enhance baseline
CCCCC(=O)N1CCN(c2nc3ccc(Br)cc3s2)CC1	0.01	-1.1
CC(C(=O)N1CCC(C(N)=O)CC1)N(c1ccc(Oc2ccccc2)cc1)S(C)(=O)=O (centres undefined)	0.58	-0.46
CCOc1ccc(NC(=O)C2CCN(C(=O)NCc3ccccc3)CC2)cc1	1.2	3.2
COc1ccc(NC(=O)COC(=O)Cc2ccc(-c3ccccc3)cc2)c(OC)c1	0.23	0.16
CCOc1cc(C(=O)Nc2ccc(S(=O)(=O)N3CCCCC3)cc2)ccc1OCC(=O)N1CCOCC1	0.13	-0.05
Cc1ccc(Cl)cc1NC(=O)c1ocnc1C	0.9	-0.05
OCCNCC1(O)C2CC3CC(C2)CC1C3 (centres undefined)	0.99	-0.98
CC(=O)c1ccc(S(=O)(=O)N2CCc3ccccc3C2)cc1	0.16	-1.4
COc1ccc(S(=O)(=O)N2CCOCC2)cc1NC(=O)COC(=O)C1=COCCO1	0.11	-0.64
O=C(NC1CC1)C1=C[C@H](c2ccc(C(F)(F)F)cc2)C[C@H](OCc2ccc(CO)cc2)O1	0.38	0.07
CCOP(=O)(c1ccc(N(C)C)cc1)C(O)c1ccccc1F (centres undefined)	0.35	-0.58
O=C(CN1CCCCC1)NCCNc1ccc(C(F)(F)F)cc1[N+](=O)[O-]	0.86	-0.3
Cc1ccc(NCC(=O)Nc2ccc(Br)cc2)cc1F	1.4	1.1
O=C(Cn1nnc(-c2ccccc2NC(=O)c2ccccc2F)n1)NC1CCCC1	0.21	1.5
CCOC(=O)/C=c1\s/c(=C(\C#N)C(=O)NC)n(-c2ccccc2)c1=O	0.44	-2.3
COc1ccc(CCNC(=O)C2CCCN(Cc3nc(-c4ccccc4C)oc3C)C2)cc1OC (centres undefined)	0.3	-2.3
Cc1cc(NC(=O)c2ccc(F)cc2)ccc1NC(=O)c1ccco1	0.11	-0.76
Cn1cc2cc([N+](=O)[O-])ccc2n1	1.6	-0.43
COC(=O)CNC(=O)Cn1ccc2ccccc2c1=O	0.57	0.39
O=C(O)CCC(=O)N1N=C(c2c(-c3ccccc3)c3cc(Cl)ccc3[nH]c2=O)CC1c1ccccc1 (centres undefined)	0.99	0.48
COc1cccc(NC(=O)CN2CCN(c3ccc(F)cc3)CC2)c1	1.9	0
COc1ccc(C2CC(=O)C=C(NNS(=O)(=O)c3ccc(C)cc3)C2)cc1 (centres undefined)	0.34	-4.2
COCC1CCN(C(=O)c2cc(COc3cccc4cnccc34)on2)CC1	1.3	-0.65
Oc1ccc(/C=N/n2c(COc3ccccc3)n[nH]c2=S)cc1O	0.01	-1.6
COc1ccc(OC)c(CN2CCN(C(=O)c3cc4ccccc4cc3O)CC2)c1	1.9	-3.3
The list goes on.
SMILES	KCNQ2 enhance	KCNQ2 enhance baseline
CCC(C)(NC(=O)c1ccccc1)C(=O)O (centres undefined)	1.3	-1.9
CCOC(=O)c1cc(C(C)(C)C)oc1CN	0.39	1.3
Cc1cccc(CN2CCN(Cc3ccc4nonc4c3)CC2CCO)n1 (centres undefined)	0.16	0.26
Cc1ccc(S(=O)(=O)N2CCOCC2)cc1C(=O)c1nccn1C	1	-2
CCOc1cc2c(C)cc(=O)oc2cc1Cl	1.1	-0.5
CCOC(=O)c1c(C)c(C(=O)NCc2ccco2)c(C)n1CC	2.3	1.5
CC(=O)c1ccc(NC(=O)CCc2c(C)nn(-c3ccc(N4CCOCC4)nn3)c2C)cc1	1.5	-1
CCCCc1ccc(NC(=O)COc2ccc(C(=O)Nc3ccccc3C)cc2)cc1	0.28	0.64
CC(C)N1C(=O)C2(OCCCO2)c2cc(Br)ccc21	1.6	-0.48
Cc1cccnc1NC(=O)C1CCN(S(=O)(=O)c2ccc3c(c2)CCC(=O)N3)CC1	0.38	1.5
CN(C)S(=O)(=O)c1cc(NC(=O)CNCc2ccc(F)cc2)ccc1Cl	0.64	-0.23
Brc1ccc2ncc(Br)cc2c1	0.49	0.02
CCN(CC(=O)NCCN1CCOCC1)S(=O)(=O)c1ccc(F)cc1	0.72	0.46
C=C(C)CNC(=S)N/N=C/c1ccc(N2CCOCC2)cc1	0.69	-1.3
CCN1CCN(C(=O)c2[nH]c3ccc(OC)cc3c2C)CC1	1	0.71
Cc1ccccc1Nc1nc(N)nc(CSc2nncn2C)n1	1.5	0.88
CC1CCN(CCOc2cc(Cl)ccc2Cl)CC1	0.44	-1.3
O=C(CSc1nc(-c2ccccc2)cc(C(F)(F)F)n1)NCc1ccco1	0.59	-1.4
O=C(COC(=O)c1ccc(S(=O)(=O)N2CCc3ccccc3C2)cc1)NC1CCS(=O)(=O)C1 (centres undefined)	0.99	-0.32
COc1c2occc2c(OC)c2c(=O)cc(C(F)(F)C(F)(F)F)oc12	1	1.1
Cn1c(=O)[nH]c(=O)c2[nH]c(CN3CCN(C(=O)c4ccco4)CC3)nc21	0.19	0.32
O=C(O)CCC(=O)N1N=C(c2ccccc2)CC1c1ccc2nccnc2c1 (centres undefined)	0.07	-0.16
COc1ccc(CCNC(=O)C2CCN(C(=O)c3ccc(C(C)(C)C)cc3)CC2)cc1OC	0.13	-1.3
CC(C)N1CC(O)=C(c2ccccc2)C1=N	0.08	-1.4
CC(Oc1cc(Cl)ccc1Cl)C(=O)N/N=C\c1ccnn1C (centres undefined)	0.89	0.17
The list continues.
SMILES	KCNQ2 enhance	KCNQ2 enhance baseline
O=C(CSc1ncccn1)NN=C1CCCCCC1	0.92	0.39
Cn1c(=S)[nH]c(=O)c2ncc(=O)[nH]c21	0.33	3.3
CCOc1ccc(CN=C(N)N=C(N)N)cc1Cl	1.4	-0.39
O=C1N=C(N2CCN(c3ccccc3)CC2)S/C1=C/c1cccs1	0.21	0.4
O=C(NCCOc1ccccc1)C(c1ccccc1)c1ccccc1	0.56	1.1
COc1cc(OC)c(NC(=O)CCNS(=O)(=O)c2cc(Br)cnc2N)cc1Cl	0.3	-1.4
COc1cccc(/C=N/NC(=O)C(=O)NCc2ccco2)c1O	0.8	-1.7
Cc1ccc(C)c(NC(=O)CNS(=O)(=O)c2ccccc2)c1	1.6	-3.2
O=C(O)c1nc(N2CCOCC2)nc(N2CCOCC2)n1	0.13	-0.5
Cc1n(Cc2ccccc2)c2cc([N+](=O)[O-])ccc2[n+]1Cc1ccccc1	0.33	1.8
Cc1occc1C(=O)Nc1ccc2c(c1)OCCO2	1.3	-1.5
O=C(NCCCNCc1ccccc1)c1ccc(/C=N/O)nc1	0.06	0.11
C=CCOc1cccc(C2C(C(=O)c3cc4ccccc4o3)=C(O)C(=O)N2c2cc(C)on2)c1 (centres undefined)	0.18	-0.51
Cc1ccc(C(C(=O)NC(C)(C)C)N(Cc2cccnc2)C(=O)C(=O)NC2CCCCC2)o1 (centres undefined)	1.9	-2.3
N#CCn1c(Cc2ccccc2)nc2ccccc2c1=O	1.3	1.4
COCCCn1c(SCC(=O)N2CCOCC2)nnc1-c1ccco1	1.1	-0.63
CCc1nc(N)c(C#N)c(-c2cccc3ccccc23)c1C	0.93	0.72
O=C(C(=O)N1CCc2ccccc2C1)c1cn(CC(=O)N2CCOCC2)c2ccccc12	0.82	0.01
CC(C)COC(=O)C1C(=O)CC(C)(O)C(C(=O)OCC(C)C)C1c1cccnc1 (centres undefined)	0.12	0.63
COc1ccc(NC(=O)CCCn2c(=O)c3sccc3n(Cc3cccc(C)c3)c2=O)cc1	1.5	-0.42
CCN(CC)C(=O)c1sc(NC(=O)Cc2ccccc2)c(C#N)c1C	0.84	2.4
O=C(CN(Cc1ccco1)C(=O)c1nsc(Cl)c1Cl)NC1CCCCC1	0.96	-1.3
CCN(CC)CCC(=O)N1c2ccccc2CCc2ccc(NC(=O)OC)cc21	0.71	0.21
COc1cccc(-c2ccc(C#N)c(SCC(=O)NCc3ccco3)n2)c1	0.03	2.6
C/C(=N\NC(=O)COc1ccc(C(C)(C)C)cc1)c1cc2ccccc2o1	0.18	1.6
The list goes on:
SMILES	KCNQ2 enhance	KCNQ2 enhance baseline
O=C1c2ccccc2C(=O)N1CC(O)COCc1ccccc1 (centres undefined)	0.4	0.07
C=CCn1c(CCNC(=O)c2ccco2)nc2ccccc21	0.32	-0.02
CN(CC(=O)Nc1ccc(Cl)cc1)C(=O)CNC(=O)c1ccc2c(c1)OCO2	4.2	-1.1
O=C(Cc1ccc(Cl)cc1)N/N=C/c1ccccc1	0.6	0.16
O=C(c1cccs1)N1CCN(Cc2nc3ccccc3c(=O)[nH]2)CC1	0.09	0.01
COc1cc(/C=C/C(=O)OCC(=O)Nc2ccc(C)cc2[N+](=O)[O-])ccc1O	0.07	1.2
Cc1cccc(OCC(=O)NNC(=O)c2cccs2)c1	2.4	-2.1
C=CCN1C(=O)/C(=C\c2ccco2)C(C(=O)OC)=C1C	0.71	-1.8
CCC(=O)NCc1ccc(-c2nc3ncccc3o2)cc1	0.01	0.7
CCN(CC)CCN1C(=O)c2oc3ccccc3c(=O)c2C1c1ccc(F)cc1 (centres undefined)	1.3	-0.95
CC(C(=O)O)n1c2ccccc2c2cnn(C)c(=O)c21 (centres undefined)	0.79	1.7
CC(C)=CCN1CCN(Cc2ccc(C#CC(C)(C)O)s2)CC1CCO (centres undefined)	0.24	0.22
CCCCn1nc(NC(=O)CCC)c2cc3cc(OC)ccc3nc21	2.1	1
CCN(C(=O)COC(=O)Cc1c[nH]c2ccccc12)C1CCS(=O)(=O)C1 (centres undefined)	0.78	-0.3
O=C1CCC(=O)N1CNc1ccccn1	0.18	-1.5
CN(C)S(=O)(=O)c1ccc(C(=O)OCCc2ccccc2)cc1	1.1	-1.3
COc1ccc(OC)c(/C=N\NC(=O)c2cc3c(ccc4ccccc43)o2)c1	0.92	0.63
Cc1nc2ccccc2n1S(=O)(=O)c1ccc(Br)cc1	1.8	-1.2
COc1ccc(N2C(=O)c3cc4ccccc4cc3C2=O)cc1	0.24	1.6
COc1ccccc1N1CCN(C(=O)CCS(=O)(=O)c2ccc3c(c2)oc(=O)n3C)CC1	1.6	2.7
COc1ccc(-c2cc(C(=O)N3CCN(Cc4ccccc4)CC3)no2)cc1OC	0.18	1.1
O=C(NCc1ccccc1)c1c[nH]c2ccc(S(=O)(=O)Nc3ccc4c(c3)OCCO4)cc2c1=O	0.92	0.84
CCOc1ccccc1Nc1nnc(SCC(=O)Nc2cccc(S(=O)(=O)NC3=NCCCCC3)c2)s1	0.52	-1.7
Cc1ccc(C(=O)O)cc1NC(=O)CSc1ncnc2sc3c(c12)CCC3	0.04	1.2
O=C(Nc1nncs1)c1ccccc1NS(=O)(=O)c1cccs1	0.49	0.29
Further results.
SMILES	KCNQ2 enhance	KCNQ2 enhance baseline
CC1=CC(=O)CC(C)(C)C1(O)/C=C/C(C)=C/C(=O)O (centres undefined)	0.07	0.33
COCCn1cnnc1SCC(=O)Nc1cccc(S(=O)(=O)N(C)c2ccccc2)c1	0.01	0.1
O=C(O)c1ccc(-c2noc(-c3cccc(C(F)(F)F)c3)n2)cc1	2	0.79
Cc1ccc(C)c(S(=O)(=O)N2CCN(C(=O)CSc3ccccc3F)CC2)c1	0.95	-1.5
CSc1nc(-c2ccccc2)nc(N2CCOCC2)c1C(C)=O	0.38	-0.46
CC(CN1CCN(C)CC1)OC(=O)c1ccccc1 (centres undefined)	1.3	-1.1
CCOc1ccc(CNC(=O)CCn2c(=O)oc3ccccc32)cc1OC	0.12	0.1
CCN(CC)c1ccc(CNc2ccc3c(c2)ncn3CC)cc1	1.1	-1
Cc1cc2cc(CNC(=O)Nc3ccccc3)ccc2n1C	0.98	-0.99
CCn1c(SCc2ccccc2)nc2c(c1=O)SCC2	4.5	0.8
Cc1nnc(-c2cnn(C)c2N)n1Cc1ccccc1F	0.74	-2.3
CC(OC(=O)CSc1ccc(F)cc1)C(=O)NC1(C#N)CCCCC1 (centres undefined)	3	-3
COc1ccc(/C=N/NC(=O)CN2CCCc3ccccc32)c(OC)c1	0.25	0.93
O=C(NCC1CCCO1)c1cc(S(=O)(=O)Nc2ccc(Br)cc2)ccc1Cl (centres undefined)	1.2	-0.23
C/C(N)=C(/C#N)C(=O)CSc1nc2ccccc2c(=O)n1CCCOC(C)C	0.14	0.39
O=C(CSc1nc(N2CCCCC2)nc(N2CCCCC2)n1)Nc1nccs1	1	0.31
Cc1c(CN(C)C(=O)/C=C/c2ccc([N+](=O)[O-])cc2)cnn1C	0.56	-0.06

Structures above that have a Cl atom:
SMILES	KCNQ2 enhance	KCNQ2 enhance baseline
Cc1ccc(Cl)cc1NC(=O)c1ocnc1C	0.9	-0.05
O=C(O)CCC(=O)N1N=C(c2c(-c3ccccc3)c3cc(Cl)ccc3[nH]c2=O)CC1c1ccccc1 (centres undefined)	0.99	0.48
CCOc1cc2c(C)cc(=O)oc2cc1Cl	1.1	-0.5
CN(C)S(=O)(=O)c1cc(NC(=O)CNCc2ccc(F)cc2)ccc1Cl	0.64	-0.23
CC1CCN(CCOc2cc(Cl)ccc2Cl)CC1	0.44	-1.3
CC(Oc1cc(Cl)ccc1Cl)C(=O)N/N=C\c1ccnn1C (centres undefined)	0.89	0.17
CCOc1ccc(CN=C(N)N=C(N)N)cc1Cl	1.4	-0.39
COc1cc(OC)c(NC(=O)CCNS(=O)(=O)c2cc(Br)cnc2N)cc1Cl	0.3	-1.4
O=C(CN(Cc1ccco1)C(=O)c1nsc(Cl)c1Cl)NC1CCCCC1	0.96	-1.3
CN(CC(=O)Nc1ccc(Cl)cc1)C(=O)CNC(=O)c1ccc2c(c1)OCO2	4.2	-1.1
O=C(Cc1ccc(Cl)cc1)N/N=C/c1ccccc1	0.6	0.16
O=C(NCC1CCCO1)c1cc(S(=O)(=O)Nc2ccc(Br)cc2)ccc1Cl (centres undefined)	1.2	-0.23

Bioassay records as filed in PubChem BioAssay.
